Source: PubChem BioAssay (Broad Institute)
UUG fidelity = modulators of start codon recognition fidelity in yeast; hit rate 0.13% among 350,000; S. cerevisiae UUG-firefly luciferase reporter, luminescence/redox ratio; AID 602363; activity score, % at 18.7 µM;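 active = replicate mean at a twofold rise or more, about +100% in these data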;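 also: firefly luciferase made from a UUG start codon reports start codon fidelity; reporter light over untreated wells divided by growth signal over untreated wells; some hits fall short of that in this replicate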
Numbers without * were called inactive.

SMILES	UUG fidelity
O=C(c1ccc(F)cc1)N1CCCCN2[C@@H](CO)[C@@H](c3ccc(/C=C/c4ccccc4)cc3)[C@@H]2C1	-1
O=C(Nc1ccc(F)cc1)N1CCCCN2[C@@H](CO)[C@@H](c3ccc(C#CC4CC4)cc3)[C@@H]2C1	25
Cc1ccc(S(=O)(=O)N(C)C[C@H]2Oc3ccc(NC(=O)Nc4ccc(C(F)(F)F)cc4)cc3C(=O)N([C@@H](C)CO)C[C@H]2C)cc1	-17
CC(=O)NC[C@H]1[C@H](c2ccccc2)[C@@H](CO)N1C(=O)Cc1ccncc1	-3
COc1ccc(S(=O)(=O)Nc2ccc3c(c2)C(=O)N([C@@H](C)CO)C[C@H](C)[C@H](CN(C)Cc2ccc(C(F)(F)F)cc2)O3)cc1	3
CCCNC(=O)N1C[C@@H]2[C@H](c3ccccc31)[C@H](CO)N2Cc1ccc(F)cc1	4
C[C@H]1CN([C@@H](C)CO)C(=O)c2cccc(NC(=O)Nc3ccc(F)cc3)c2O[C@H]1CN(C)Cc1ccc(Cl)c(Cl)c1	-6
COCCN(C[C@H]1[C@H](c2ccccc2)[C@@H](CO)N1C(C)=O)C(=O)c1ccccc1	15
N#Cc1cccc(-c2ccc3c(c2)[C@H]2[C@H](CCN2C(=O)c2ccc4c(c2)OCO4)[C@H](CO)N3)c1	-18
O=C(Nc1ccccc1F)N1CCCCN2[C@H](CO)[C@@H](c3ccc(/C=C/c4ccccc4)cc3)[C@@H]2C1	3

Sorted by value in UUG fidelity (rising): 6 from the list above.
SMILES	UUG fidelity
N#Cc1cccc(-c2ccc3c(c2)[C@H]2[C@H](CCN2C(=O)c2ccc4c(c2)OCO4)[C@H](CO)N3)c1	-18
C[C@H]1CN([C@@H](C)CO)C(=O)c2cccc(NC(=O)Nc3ccc(F)cc3)c2O[C@H]1CN(C)Cc1ccc(Cl)c(Cl)c1	-6
CC(=O)NC[C@H]1[C@H](c2ccccc2)[C@@H](CO)N1C(=O)Cc1ccncc1	-3
O=C(Nc1ccccc1F)N1CCCCN2[C@H](CO)[C@@H](c3ccc(/C=C/c4ccccc4)cc3)[C@@H]2C1	3
CCCNC(=O)N1C[C@@H]2[C@H](c3ccccc31)[C@H](CO)N2Cc1ccc(F)cc1	4
COCCN(C[C@H]1[C@H](c2ccccc2)[C@@H](CO)N1C(C)=O)C(=O)c1ccccc1	15

More compounds follow:
SMILES	UUG fidelity
O=C(c1ccc(F)cc1)N1CC[C@H]2[C@H](CO)Nc3ccc(-c4ccccc4F)cc3[C@H]21	13
C[C@H]1CN([C@@H](C)CO)C(=O)c2cccc(NS(=O)(=O)c3ccc(Cl)cc3)c2O[C@H]1CN(C)C(=O)Nc1ccc(C(F)(F)F)cc1	0
O=S(=O)(c1ccccc1F)N1CCCCN2[C@@H](CO)[C@H](c3ccc(-c4cncnc4)cc3)[C@@H]2C1	-10
O=C(NC1CCCC1)N1CCCCN2[C@H](CO)[C@H](c3ccc(-c4ccncc4)cc3)[C@@H]2C1	-5
CCS(=O)(=O)N1CCCCN2[C@@H](CO)[C@H](c3ccc(-c4cccc(C#N)c4)cc3)[C@@H]2C1	8
CN(C)CC#Cc1ccc([C@@H]2[C@@H](CO)N3CCCCN(C(=O)C4CCC4)C[C@H]23)cc1	0
Cc1noc(C)c1NC(=O)Nc1ccc2c(c1)C(=O)N([C@H](C)CO)C[C@H](C)[C@H](CN(C)Cc1ccncc1)O2	-10
COc1cccc(CN2[C@@H](CO)[C@@H]3c4ccccc4N(C(=O)c4ccncc4)C[C@@H]32)c1	0
Cc1ccc(S(=O)(=O)N(C)C[C@H]2Oc3ccc(NC(=O)c4ccncc4)cc3C(=O)N([C@@H](C)CO)C[C@@H]2C)cc1	3
CCC(=O)Nc1ccc2c(c1)OC[C@@H](C)N(Cc1ccc(-c3ccccn3)cc1)C[C@@H](C)[C@H](OC)CN(C)C2=O	-6
C[C@@H]1CN([C@@H](C)CO)C(=O)c2cc(NC(=O)Nc3ccc(C(F)(F)F)cc3)ccc2O[C@@H]1CN(C)Cc1ccc(Cl)c(Cl)c1	-13
C[C@@H]1CN([C@@H](C)CO)C(=O)Cc2cc(NS(=O)(=O)c3ccc(F)cc3)ccc2O[C@H]1CN(C)C(=O)NC1CCCCC1	25
COCC(=O)Nc1ccc2c(c1)[C@H]1C[C@H](CC(=O)NCC3CC3)O[C@H](CO)[C@H]1O2	-12
COCC(=O)Nc1ccc2c(c1)C(=O)N(C)[C@@H]1CC[C@H](CC(=O)NCC3CCCCC3)O[C@@H]1CO2	-6
COc1ccc(CN(C)C[C@H]2Oc3ccc(NS(=O)(=O)c4cn(C)cn4)cc3CC(=O)N([C@H](C)CO)C[C@@H]2C)cc1	18
Cc1cccc(S(=O)(=O)N2CCCCN3[C@@H](CO)[C@@H](c4ccc(-c5ccncc5)cc4)[C@@H]3C2)c1	-5
C[C@@H](NC(=O)C[C@@H]1CC[C@@H]2[C@H](COC[C@H](O)CN2C(=O)Nc2ccccc2)O1)c1ccccc1	-5
CCCC(=O)Nc1ccc2c(c1)OC[C@H](C)N(Cc1cccc(F)c1)C[C@@H](C)[C@H](OC)CN(C)C2=O	1
COc1cccc(-c2ccc([C@@H]3[C@H](CO)N4CCCCN(C(=O)c5ccc6c(c5)OCO6)C[C@@H]34)cc2)c1	15
COCC(=O)Nc1ccc2c(c1)[C@H]1C[C@@H](CC(=O)N3CCc4ccccc4C3)O[C@@H](CO)[C@H]1O2	3
C[C@@H]1CN([C@@H](C)CO)C(=O)c2cccc(NC(=O)Nc3ccc4c(c3)OCO4)c2O[C@@H]1CN(C)S(=O)(=O)c1cn(C)cn1	4
COc1ccc(NC(=O)N2C[C@H](O)COC[C@@H]3O[C@H](CC(=O)NCc4ccccc4OC)CC[C@H]32)cc1	5
O=C(C[C@H]1CC[C@H]2[C@@H](COC[C@H](O)CN2S(=O)(=O)c2ccc(F)cc2)O1)N[C@H]1CCN(Cc2ccccc2)C1	40
O=S(=O)(c1cccs1)N1CCCCN2[C@H](CO)[C@H](c3ccc(C4=CCCC4)cc3)[C@H]2C1	-4
COCC(=O)N1CC[C@@H]2[C@H](CO)Nc3ccc(-c4ccc(C(=O)N(C)C)cc4)cc3[C@@H]21	6
CN(C)C(=O)C[C@@H]1CC[C@H]2[C@@H](COC[C@@H](O)CN2C(=O)C2CCOCC2)O1	-9
O=C(C1CCCCC1)N1C[C@H]2[C@@H](c3ccccc31)[C@@H](CO)N2C(=O)c1ccccc1F	-1
CCS(=O)(=O)N(C)C[C@H]1OCc2ccccc2-c2c(n(C)c3ccccc23)C(=O)N([C@H](C)CO)C[C@H]1C	-1
COc1cccc(C(=O)Nc2ccc3c(c2)C(=O)N(C)C[C@H](OC)[C@@H](C)CN(CC2CC2)[C@@H](C)CO3)c1	2
COc1cccc(C(=O)Nc2ccc3c(c2)C(=O)N(C)[C@H]2CC[C@@H](CC(=O)N[C@@H](C)c4ccccc4)O[C@H]2CO3)c1	20
O=C(C[C@H]1CC[C@H]2NC[C@H](O)COC[C@@H]2O1)Nc1ccccc1	0
C[C@@H]1CN([C@@H](C)CO)C(=O)c2cccc(NC(=O)Nc3ccccc3)c2O[C@H]1CN(C)Cc1ccc(C(=O)O)cc1	0
Cc1ccc(S(=O)(=O)Nc2ccc3c(c2)C(=O)N([C@H](C)CO)C[C@@H](C)[C@H](CN(C)S(=O)(=O)c2cccs2)O3)cc1	11
COCC(=O)N1[C@@H]2CN(C(=O)c3cccnc3)c3ccccc3[C@@H]2[C@@H]1CO	37
O=S(=O)(c1cccc(F)c1)N1CC[C@H]2[C@H](CO)Nc3ccc(Br)cc3[C@H]21	13
O=S(=O)(NC[C@H]1N[C@H](CO)[C@@H]1c1ccccc1)c1ccccc1	-4
C[C@H]1CN([C@@H](C)CO)C(=O)Cc2cc(NS(=O)(=O)c3cn(C)cn3)ccc2O[C@@H]1CN(C)C	-12
CC(C)NC(=O)N1[C@H](CO)[C@@H]2c3ccccc3N(C(=O)Nc3cccc(Cl)c3)C[C@@H]21	-4
CO[C@H]1CN(C)C(=O)c2cc(NC(=O)Nc3cc(F)ccc3F)ccc2OC[C@H](C)N(C(=O)c2cnccn2)C[C@@H]1C	-11
O=C(C[C@@H]1CC[C@@H]2[C@H](COC[C@@H](O)CN2Cc2cc(F)ccc2F)O1)NCc1ccccc1	15

Overlap with the part before: three compounds; new compounds follow.
SMILES	UUG fidelity
CC(C)NC(=O)N1[C@H](CO)[C@@H]2c3ccccc3N(C(=O)Nc3cccc(Cl)c3)C[C@@H]21	-4
CO[C@H]1CN(C)C(=O)c2cc(NC(=O)Nc3cc(F)ccc3F)ccc2OC[C@H](C)N(C(=O)c2cnccn2)C[C@@H]1C	-11
O=C(C[C@@H]1CC[C@@H]2[C@H](COC[C@@H](O)CN2Cc2cc(F)ccc2F)O1)NCc1ccccc1	15
CO[C@H]1CN(C)C(=O)c2cc(NC(=O)c3ccc(F)cc3)ccc2OC[C@H](C)N(C(=O)c2ccc(F)cc2)C[C@@H]1C	12
C/C=C/c1ccc([C@H]2[C@@H](CO)N[C@@H]2CNC(=O)CC2CC2)cc1	-10
Cc1cc(C(=O)Nc2cccc3c2O[C@H](CN(C)C(=O)NC(C)C)[C@H](C)CN([C@@H](C)CO)C3=O)n(C)n1	17
COCC(=O)Nc1ccc2c(c1)OC[C@@H](C)N(C(=O)c1cccnc1)C[C@H](C)[C@@H](OC)CN(C)C2=O	-2
COCC(=O)N(C)C[C@@H]1[C@@H](c2ccccc2)[C@H](CO)N1C(=O)Cc1cccnc1	-10
C[C@H]1CN([C@@H](C)CO)C(=O)c2cc(NC(=O)Nc3ccc4c(c3)OCO4)ccc2O[C@H]1CN(C)Cc1ccc(Cl)c(Cl)c1	-5
CCCNC(=O)C[C@H]1CC[C@@H]2[C@H](COC[C@@H](O)CN2C(=O)Nc2c(C)noc2C)O1	-11
C[C@H](CO)N1C[C@H](C)[C@H](CN(C)C(=O)Nc2ccc(C(F)(F)F)cc2)Oc2c(NC(=O)c3cnccn3)cccc2C1=O	-11
CO[C@@H]1CN(C)C(=O)c2ccc(NC(=O)C3CC3)cc2OC[C@@H](C)N(C(=O)c2cccnc2)C[C@@H]1C	-3
CO[C@H]1CN(C)C(=O)c2cc(NC(=O)C3CC3)ccc2OC[C@@H](C)N(Cc2ccccc2)C[C@@H]1C	-13
COc1ccc(NC(=O)N(C)C[C@@H]2Oc3c(NC(=O)NC(C)C)cccc3C(=O)N([C@@H](C)CO)C[C@@H]2C)cc1	0
C[C@H]1CN([C@@H](C)CO)C(=O)c2cc(NS(=O)(=O)c3cccs3)ccc2O[C@H]1CN(C)C(=O)Nc1ccc(C(F)(F)F)cc1	-15
CCS(=O)(=O)N1CCCCN2[C@H](CO)[C@H](c3ccc(-c4ccccc4)cc3)[C@H]2C1	-11
Cc1ccc(S(=O)(=O)N(C)C[C@H]2Oc3ccc(NC(=O)C4CC4)cc3CC(=O)N([C@@H](C)CO)C[C@H]2C)cc1	19
CCS(=O)(=O)Nc1ccc2c(c1)C(=O)N(C)C[C@H](OC)[C@@H](C)CN(Cc1nccs1)[C@@H](C)CO2	-13
C[C@@H]1CN([C@H](C)CO)C(=O)c2cccc(NC(=O)C3CCCCC3)c2O[C@@H]1CN(C)Cc1ccc(Oc2ccccc2)cc1	29
COc1cccc(C(=O)Nc2ccc3c(c2)C(=O)N(C)[C@H]2CC[C@@H](CC(=O)N[C@H](C)c4ccccc4)O[C@H]2CO3)c1	-5
O=C(C1CCCC1)N1CCCCN2[C@H](CO)[C@H](c3ccc(-c4cccc(F)c4)cc3)[C@@H]2C1	4
COc1ccc(NC(=O)N(C)C[C@@H]2OCc3ccccc3-c3c(n(C)c4ccccc34)C(=O)N([C@@H](C)CO)C[C@H]2C)cc1	19
C[C@@H]1CN([C@H](C)CO)C(=O)c2cccc(NS(=O)(=O)c3ccc(F)cc3)c2O[C@H]1CN(C)S(=O)(=O)c1cccs1	20

An excerpt of these results, field by field.
molecule: O=C(c1ccc(F)cc1)N1CC[C@H]2[C@H](CO)Nc3ccc(-c4ccccc4F)cc3[C@H]21
- UUG fidelity: 13

molecule: C[C@H]1CN([C@@H](C)CO)C(=O)c2cccc(NS(=O)(=O)c3ccc(Cl)cc3)c2O[C@H]1CN(C)C(=O)Nc1ccc(C(F)(F)F)cc1
- UUG fidelity: 0

(further entries)
SMILES	UUG fidelity
CCC(=O)N1CCCCN2[C@H](C1)[C@H](c1ccc(C#Cc3cccnc3)cc1)[C@@H]2CO	-4
O=C(C[C@@H]1CC[C@H]2[C@@H](COC[C@H](O)CN2Cc2cccc(C(F)(F)F)c2)O1)NCc1ccncc1	2
CCCNC(=O)N1[C@H](CO)[C@@H]2c3ccccc3N(C(=O)C3CCC3)C[C@@H]21	23
Cc1noc(C)c1NC(=O)Nc1ccc2c(c1)C(=O)N([C@@H](C)CO)C[C@H](C)[C@@H](CN(C)Cc1ccc(-c3ccccc3)cc1)O2	-6
Cc1noc(C)c1S(=O)(=O)Nc1cccc2c1O[C@@H](CN(C)S(=O)(=O)c1cn(C)cn1)[C@@H](C)CN([C@H](C)CO)C2=O	-1
CO[C@H]1CN(C)C(=O)c2cc(NC(=O)Nc3ccc(Cl)cc3)ccc2OC[C@H](C)NC[C@H]1C	5
C[C@H](NC(=O)C[C@@H]1CC[C@H]2[C@@H](COC[C@@H](O)CN2C(=O)Nc2ccccc2)O1)c1ccccc1	-7
Cc1ccccc1-c1ccc([C@H]2[C@@H](CO)N3CCCCN(C(=O)c4cccnc4)C[C@@H]23)cc1	-12
COCC(=O)NC[C@H]1N[C@H](CO)[C@@H]1c1ccc(C2=CCCC2)cc1	0
CCCN1C[C@@H](C)[C@@H](OC)CN(C)C(=O)c2cc(NC(=O)c3cccc(F)c3)ccc2OC[C@@H]1C	-2
CN1c2ccc(-c3ccccc3)cc2[C@H]2[C@H](CCN2C(=O)c2ccccc2)[C@@H]1CO	-2
CN1c2ccc(-c3ccccc3)cc2[C@H]2[C@H](CCN2C(=O)CC2CC2)[C@H]1CO	3
O=C(c1cccnc1)N1CC[C@@H]2[C@@H](CO)Nc3ccc(C4=CCCCC4)cc3[C@@H]21	-8
CC(=O)NC[C@H]1[C@H](c2ccc(-c3cccnc3)cc2)[C@H](CO)N1C(=O)C1CC1	0
C[C@H]1CN([C@@H](C)CO)C(=O)c2cccc(NC(=O)Nc3ccccc3)c2O[C@H]1CN(C)S(=O)(=O)c1ccc(Cl)cc1	24
O=C(C[C@H]1CC[C@@H]2[C@H](COC[C@H](O)CN2C(=O)C2CCCC2)O1)NCc1ccncc1	15

These rows are one share of the data; rates above refer to the full screens.
